# D2 agonist: agonists of human D2 dopamine receptor (beta-arrestin). DiscoveRx PathHunter D2 beta-arrestin, luminescence, 90 min; 100% = 57 uM dopamine signal. activation, % (no concentration beside the values). 0.084% of 360,000 active; in the data active = activation above about 40%; inconclusive = about 15% to 40%; inactive = below about 15%; also: compound concentration not given in the record; the text of the record calls up to 30% inactive
# Target sequence (P14416 whole entry, looked up): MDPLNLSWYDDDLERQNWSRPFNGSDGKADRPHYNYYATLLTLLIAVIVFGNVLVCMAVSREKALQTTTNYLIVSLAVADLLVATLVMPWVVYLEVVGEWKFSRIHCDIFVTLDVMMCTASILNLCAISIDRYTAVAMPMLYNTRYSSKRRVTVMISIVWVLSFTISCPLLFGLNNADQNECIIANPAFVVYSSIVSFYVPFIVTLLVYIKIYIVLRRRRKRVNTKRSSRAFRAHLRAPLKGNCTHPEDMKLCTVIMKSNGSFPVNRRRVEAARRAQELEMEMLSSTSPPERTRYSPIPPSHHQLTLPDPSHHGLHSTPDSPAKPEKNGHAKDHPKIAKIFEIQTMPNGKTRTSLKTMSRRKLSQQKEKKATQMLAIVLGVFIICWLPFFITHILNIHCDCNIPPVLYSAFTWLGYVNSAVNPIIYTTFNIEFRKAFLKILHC
#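 Agonist mode: compounds alone added to overnight-plated D2 PathHunter cells for 90 min at 37 C, with 57 uM final dopamine (EC100) defining full response. Beta-arrestin recruitment detected by chemiluminescent reagent, read after 1 h at ambient temperature.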
# D2 potentiator: potentiates the human D2 dopamine receptor allosterically; DiscoveRx D2 beta-arrestin cells, luminescence, 90 min; 100% = 57 uM dopamine signal; potentiation, % (test concentration not listed); 0.23% of 360,000 active; active = potentiation of 50% or more; inconclusive = 30% to 50%; inactive = 30% or less;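 also: compound concentration not given in the record; tested on top of an EC20 dose of dopamine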
#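 PathHunter D2 cells, attached overnight at 37 deg C, received compound in DMSO plus dopamine at EC20 (50 nM final) for 90 min at 37 deg C. Beta-arrestin recruitment was read as luminescence after 1 h with detection reagent at ambient temperature.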
# PINK1 modulator: changes PINK1 expression | PINK1 immunofluorescence, high-content cytometry, 24 h | Potency, µM (series often up to 76.6 µM), inactives show at the highest dose activation (PINK1 increase), usual class: activators | 0.2% of 410,000 active | AID 624263; active = well fitted activation curve with a large enough effect; inconclusive = small, poorly fitted or top-dose-only effect; inactive = flat fitted curve, though single readings scatter; cell line not stated here;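 also: potency is read from the fitted curve at half-maximal effect; % of control where 0% means no effect; nearly all actives have a fitted effect of over 65% in size; a mitochondrial uncoupler was the plate control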
#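 Measures PINK1 amount and localization on or inside mitochondria by immunofluorescence. Stable cells get compounds at 5 concentrations for 24 hours before fixation and staining; CCCP controls included.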
# Six1-Eya2 blk: Six1/Eya2 interaction inhibition; Q15475+O00167; AlphaScreen GST-Six1/His-Eya2 binding, biochemical; active compounds read low; control for the full effect not named in the record; activity change, % (concentration not given with the values); 0.56% of 360,000 active; in the data active = activity change below about -65%; inconclusive = about -30% to -65%; inactive = above about -30%; also: % is scaled to controls: 0 for no effect and ±100 for the full control effect
#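 Compounds are tested against tagged Six1 and Eya2 proteins bridged by glutathione donor and nickel acceptor beads; after a one-hour incubation at 37 °C without light, AlphaScreen emission is recorded.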
# TRPML1 ag: human mucolipin-1 channel agonism | 0.12% of 410,000 active | activation, % (test concentration not listed) | Q9GZU1 | TRPML1-expressing cells, Ca2+ dye fluorescence, FDSS; host cell line not named in the record; reference of the full effect not given here; in the data active = activation above about 50%; inconclusive = about 30% to 50%; inactive = below about 30%; also: 0% is about no effect; the text of the record puts the active cut at 80%
# Target sequence (Q9GZU1 whole entry, looked up): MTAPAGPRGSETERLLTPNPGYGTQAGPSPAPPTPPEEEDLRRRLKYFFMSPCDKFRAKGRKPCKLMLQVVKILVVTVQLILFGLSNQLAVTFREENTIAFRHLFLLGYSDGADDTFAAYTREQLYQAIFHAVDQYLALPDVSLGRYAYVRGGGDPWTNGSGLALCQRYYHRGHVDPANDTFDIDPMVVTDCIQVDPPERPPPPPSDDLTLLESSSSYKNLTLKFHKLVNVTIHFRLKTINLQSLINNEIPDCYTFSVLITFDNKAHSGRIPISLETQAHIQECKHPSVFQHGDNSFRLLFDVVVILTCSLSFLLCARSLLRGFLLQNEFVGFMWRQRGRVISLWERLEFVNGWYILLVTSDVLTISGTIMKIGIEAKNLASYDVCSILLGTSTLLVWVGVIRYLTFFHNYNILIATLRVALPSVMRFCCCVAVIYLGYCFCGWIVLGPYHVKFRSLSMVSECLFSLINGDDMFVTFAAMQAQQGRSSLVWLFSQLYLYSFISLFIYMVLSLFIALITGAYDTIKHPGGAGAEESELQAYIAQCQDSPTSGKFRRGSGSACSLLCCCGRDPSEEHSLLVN
#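 In this qHTS format, compounds were pin-transferred onto Ca8-dye-loaded TRPML1-DL cells induced with Tet overnight, and intracellular Ca2+ fluorescence was recorded kinetically for 110 s after a 10 s baseline. A subsequent 4uM final 54-4 (EC80) addition followed by a second 110 s read served as the antagonist phase.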
# TRPML1 blocker: inhibitors of human TRPML1 channel | TRPML1-inducible cells, Ca2+ dye fluorescence, FDSS; active compounds read low; inhibition of EC80 agonist-evoked calcium signal | activity change, negative = inhibition, % (concentration not given with the values) | AID 624415 | 0.02% of 390,000 active | Q9GZU1; in the data active means activity change below about -50%; inconclusive means about -30% to -50%; inactive means above about -30%;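 also: stimulus is agonist 54-4 at its EC80 concentration; % is scaled to controls: 0 for no effect and ±100 for the full control effect; the text of the record puts the active cut at -80%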
#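 Tet-induced TRPML1-DL cells loaded with Ca8 no-wash calcium dye were read kinetically on FDSS. Compound addition was followed by EC80 agonist 54-4 (4 uM final); inhibition was read over 110 s.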
# Active calls of the source: *; ? = inconclusive; · = not tested or not shown; & = joins results of further samples; [ ] = remark or other dose. Not a hit list. About 1% of those tested had a hit in this group.
SMILES,D2 agonist,D2 potentiator,PINK1 modulator,Six1-Eya2 blk,TRPML1 ag,TRPML1 blocker
COc1ccccc1CC(NC(C)=O)C(=O)NC1CCN(C(=O)NCc2ccccc2)CC1 (stereo not given),-0.6,-3,0.8%,-2,-0.1,-1
CCOc1ccc(CCNS(=O)(=O)c2c(C)n[nH]c2C)cc1OCC,0.0,1,3.4%,0,-0.6,7
CCN(C(=O)CCc1nc(-c2ccc(C)cc2)no1)c1cccc(Cl)c1,·,·,1.8%,·,1.6,26
NC(=O)CCc1c[nH]c2ccccc12,-2.0,-13,-2.3%,-4,-0.5,7
COc1ccccc1N(O)C1CC(=O)N(c2ccc(F)cc2)C1=O (stereo not given),9.5,?,1.0%,-13,0.1,0
CN1CCN(S(=O)(=O)c2cc([N+](=O)[O-])ccc2N/N=C/c2ccc(Cl)cc2)CC1,-5.1,-10,?,2,-0.3,-14
Cc1ccc(C(=O)Nc2nnc(S(=O)(=O)N3CCC(C)CC3)s2)cc1,-2.9,0,2.8%,-1,-1.2,7
CC(C)=CCC[C@](C)(O[C@@H]1O[C@H](CO[C@@H]2O[C@H](CO)[C@@H](O)[C@H](O)[C@H]2O)[C@@H](O)[C@H](O)[C@H]1O)C1CC[C@]2(C)C1C(=O)CC1[C@@]3(C)CC[C@H](O[C@H]4O[C@@H](CO)[C@H](O)[C@@H](O)[C@@H]4O)C(C)(C)C3CC[C@]12C (stereo not given in full),0.0,7,1.7%,5,-0.7,-4
C=CCn1c(SC(C)C(=O)c2c(N)n(C)c(=O)n(C)c2=O)nnc1-c1ccoc1C (stereo not given),5.2,6,3.0%,-2,-0.5,1
COc1ccc(S(=O)(=O)N2CCCC(C(=O)NCCC3=CCCCC3)C2)cc1 (stereo not given),3.4,-5,-3.3%,7,2.2,-1
COc1ccccc1OCC(=O)NNC(=O)c1cnccn1,2.3,-3,-0.2%,-13,-0.2,24
COc1ccc(NC(=O)N2CCC(c3nc(-c4cccs4)no3)CC2)cc1,-2.3,-9,-0.7%,15,-0.7,37
COc1ccccc1NC(=O)Cn1c(=O)n(-c2ccc(C)cc2)c(=O)c2ccc(C(=O)NCc3ccco3)cc21,·,·,0.2%,·,0.4,-10
CCOc1ccccc1N1CCN(C(=O)C(Sc2ccccc2)c2ccccc2)CC1 (stereo not given),0.6,-15,0.3%,-4,2.4,70
COC(=O)C1(C(F)(F)F)C2C=CC(C2)N1S(=O)(=O)c1ccc(C)cc1 (stereo not given),3.0,-2,4.9%,11,-0.4,-4
Cc1ccccc1OCCCC(=O)NCc1ccco1,-2.1,3,7.6%[38.3 µM],20,0.0,5
Cn1c(/C=N/NC(=O)c2ccccc2Br)nc2ccccc21,-0.5,-4,1.4%[38.3 µM],-2,-0.5,-4
COc1ccc(/C=C/C(=O)Nc2ccccc2C(N)=O)cc1S(=O)(=O)N1CCOCC1,2.3,-9,-2.2%,?,2.9,-1
O=C(Nc1ccccc1C(F)(F)F)c1cc(-c2ccco2)on1,-3.0,2,-0.4%,0,1.4,-9
CN(CC(=O)NNC(=O)CNC(=O)c1ccccc1Cl)S(=O)(=O)c1ccc(Cl)cc1,-6.0,-4,3.4%,33,0.1,11
CC1CCN(S(=O)(=O)c2ccc(NC(=O)C3CC(=O)N(c4ccccc4)C3)cc2)CC1 (stereo not given),1.3,1,3.1%,-1,0.8,-5
CCn1cc(C(=O)NCc2cccc(C(F)(F)F)c2)c(=O)c2ccc(C)nc21,0.5,-2,5.4%,4,·,·
CCN(CC)c1ccc(/C=C2\CCC(/C=C(/C#N)C(=O)Nc3ccccc3F)=C2N2CCOCC2)cc1,-5.6,-1,2.9%,-10,0.7,-5
Cc1ccc(NC(=O)COC(=O)c2ccc(Br)o2)cc1S(=O)(=O)N1CCCCC1,-1.0,1,0.9%,-5,-0.4,-9
Cc1nc(N2CCCC2)c2c(C(=O)Nc3cccc(Cl)c3C)c(C)oc2n1,·,·,-12%,·,2.1,25
# Next entries:
SMILES,D2 agonist,D2 potentiator,PINK1 modulator,Six1-Eya2 blk,TRPML1 ag,TRPML1 blocker
O=C(CNC(=O)c1ccccc1Br)N/N=C\c1cc([N+](=O)[O-])cc(Br)c1O,-6.0,-15,5.8%,?,-0.5,0
CN(C)c1ccc(CC(=O)N2CCCC(c3cc(C(=O)Nc4ccccc4)no3)C2)cc1 (stereo not given),-3.6,-9,1.0%,-13,-1.1,·
O=C(NCc1ccc2c(c1)OCO2)c1cc2c(s1)CS(=O)(=O)C2,-2.6,-11,3.4%[38.3 µM],-11,0.6,4
OC12CCCCC1C(c1ccc3c(c1)OCO3)N(Cc1ccccc1F)CC2 (stereo not given),-1.2,-8,9.8%[38.3 µM],3,0.9,-4
Cc1ccc(C(=O)N/C(=C\c2cccs2)c2nc3ccccc3[nH]2)cc1,-3.3,-29,15%,5,1.1,17
COc1ccc(/C=C/C(=O)OC2CCCCC2CN(C)C)cc1 (stereo not given),-1.4,-9,-0.4%,12,0.0,-13
CC(CCc1ccccc1)NC(=O)CSc1n[nH]c(-c2ccccc2)n1 (stereo not given),·,·,-0.1%,·,0.1,-5
CC(C)C(NC(=O)c1ccc(C(C)(C)C)cc1)C(=O)Nc1cccc(S(N)(=O)=O)c1 (stereo not given),-0.9,-42,-0.5%,-2,0.0,-9
Cc1ccc(C)c(NC2=C(c3ccc(C(F)(F)F)cc3)C(=O)c3ccccc32)c1,·,·,0.5%,·,2.3,-1
O=C(CCCn1cnc([N+](=O)[O-])n1)Nc1ccc(Cl)c(Cl)c1,0.4,-5,-0.8%[38.3 µM],-2,-0.4,5
Cc1ccc(C(C(=O)NCCc2ccccc2)N(C(=O)c2csnn2)C2CC2)cc1 (stereo not given),-1.4,-11,-0.5%,0,-1.5,5
CC1CCCC(NC(=O)c2nn(C)c3c2CS(=O)(=O)c2ccccc2-3)C1C (stereo not given),4.7,-9,0.0%,3,0.4,-1
CCCCC(=O)N(C)c1c(C)nc2ccc(C(=O)NCCN(C)C)cn12,-4.3,-10,-1.4%,14,0.0,·
C/C=C/C(=O)N1CC2(CC(c3cccc(NC(=O)CC)c3)=NO2)C[C@H]1C(N)=O (stereo not given in full),-4.1,-11,0.1%,-4,0.1,0
Cc1cc2cc3c(cc2nc1SCC(=O)O)CCC3,-6.6,-32,0.0%,-14,-1.5,-4
O=C(NNc1c2ccccc2nc2ccccc12)c1ccc(O)cc1,-8.8,-9,1.3%,?,5.0,8
CNC(=O)c1cc(Oc2ccc(NC(=O)Nc3ccc(Cl)c(C(F)(F)F)c3)cc2)ccn1,0.8,-15,13%&20%,1,1.7&0.6,31
CC(=O)NC1CC2CCCC(C1)N2C(=O)Nc1cccc(C(C)=O)c1 (stereo not given),-1.9,-26,-1.1%,9,-0.4,11
Cn1nc(C(C)(C)C)cc1N1C(=O)CCC1(C)C(=O)NCc1ccccc1 (stereo not given),-3.5,-7,1.4%,7,-0.1,·
CC1(C)CC=CC(COC(=O)c2ccccc2C(=O)O)C1 (stereo not given),-1.0,-5,-3.1%,1,-0.1,-7
C=CC(COCc1ccccc1)N(CC(=O)OC)S(=O)(=O)c1cc(Br)ccc1OC (stereo not given),-1.7,-5,-0.1%,1,0.8,31
Cc1cccc(N2CCN(C(=O)CCS(=O)(=O)c3ccc4c(c3)oc(=O)n4C)CC2)c1C,3.8,-18,-0.9%&2.5%,0,-1.4&-0.1,7&2
Cc1cc(=O)oc2c3c(cc(OCC(=O)NCCC(=O)O)c12)OC(C)(C)CC3,-5.6,-11,1.0%,-1,0.4,-18
CCOC(=O)N1CCC(N2CCN(c3ccccc3)CC2)CC1,?,9,-0.5%,-5,-0.6,2
CC1CCCC(C)N1C(=O)c1ccccc1Nc1ccc(SC(F)F)cc1 (stereo not given),-4.6,-3,6.0%,-11,6.0,80
# Continuation:
SMILES,D2 agonist,D2 potentiator,PINK1 modulator,Six1-Eya2 blk,TRPML1 ag,TRPML1 blocker
CNCCOc1ccccc1-c1ccccc1,2.5,-33,-0.7%,8,-0.3,14
CCOC(=O)N1CCC(N2C(=O)c3ccccc3C2Nc2cc(C)cc(C)c2)CC1 (stereo not given),-2.2,-3,-0.6%,-16,1.4,8
Cc1ccc(NC(=S)N/C(=N/S(=O)(=O)c2ccccc2)c2ccccc2)cc1,-4.0&-3.7,4&-6,1.0%&-2.7%,-4&-2,0.3&-0.6,13&-4
COc1cccc(C(=O)Nc2cccc(-c3ccccc3)c2)c1,-0.6,-11,4.7%,-1,·,·
CC(C)(C)NC(=O)C(c1ccc(-c2ccccc2)cc1)N(C[C@H]1CC[C@@H]([C@@H]2CC[C@H](CO)O2)O1)C(=O)c1ccccc1F (stereo not given in full),0.5,·,11%,23,-0.6,-7
N#CCSc1nc2c(cc1C#N)CCCCCC2,-2.5,-21,-2.1%,14,-1.2,1
COCOCCn1cc(CN2CCS(=O)(=O)N(Cc3ccc(-c4ccncc4)cc3)C(CC(C)C)C2=O)nn1 (stereo not given),0.4,-4,-1.9%,1,-0.4,6
Cc1ccc(C)c(NC2=NCC(=O)N2c2ccc3c(c2)OCCO3)c1,-2.2,-4,0.4%,1,-0.5,30
N#C/C(=C/c1ccc(Sc2nc3ccccc3[nH]2)o1)c1cccc(F)c1,1.5,-14,?,3,1.7,1
Cc1ccc(CCN2CCN=C2N(C)C)cc1,-0.4,-5,-1.0%,4,0.1,20
Oc1ccccc1-c1nc2c3ccccc3c3ccccc3c2[nH]1,8.2,14,?,1,·,·

# For convenience, 9 of the compounds above.
SMILES,D2 agonist,D2 potentiator,PINK1 modulator,Six1-Eya2 blk,TRPML1 ag,TRPML1 blocker
CCOC(=O)N1CCC(N2C(=O)c3ccccc3C2Nc2cc(C)cc(C)c2)CC1 (stereo not given),-2.2,-3,-0.6%,-16,1.4,8
Cc1ccc(NC(=S)N/C(=N/S(=O)(=O)c2ccccc2)c2ccccc2)cc1,-4.0&-3.7,4&-6,1.0%&-2.7%,-4&-2,0.3&-0.6,13&-4
COc1cccc(C(=O)Nc2cccc(-c3ccccc3)c2)c1,-0.6,-11,4.7%,-1,·,·
CC(C)(C)NC(=O)C(c1ccc(-c2ccccc2)cc1)N(C[C@H]1CC[C@@H]([C@@H]2CC[C@H](CO)O2)O1)C(=O)c1ccccc1F (stereo not given in full),0.5,·,11%,23,-0.6,-7
N#CCSc1nc2c(cc1C#N)CCCCCC2,-2.5,-21,-2.1%,14,-1.2,1
COCOCCn1cc(CN2CCS(=O)(=O)N(Cc3ccc(-c4ccncc4)cc3)C(CC(C)C)C2=O)nn1 (stereo not given),0.4,-4,-1.9%,1,-0.4,6
Cc1ccc(C)c(NC2=NCC(=O)N2c2ccc3c(c2)OCCO3)c1,-2.2,-4,0.4%,1,-0.5,30
N#C/C(=C/c1ccc(Sc2nc3ccccc3[nH]2)o1)c1cccc(F)c1,1.5,-14,?,3,1.7,1
Cc1ccc(CCN2CCN=C2N(C)C)cc1,-0.4,-5,-1.0%,4,0.1,20

# Screening data as filed in PubChem BioAssay.
